Screens deposited in PubChem BioAssay by several laboratories.
CSC inhib – blocks cancer stem cells | cancer stem cell-like cells viability, luminescence | inhibition, % at 7.5 µM | 300,000 compounds, 1.1% hits | AID 2717;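 active means mean at 75% or more and at least half the replicates too; inconclusive means mean and replicates disagree; tested in HMLE shEcad cells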;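 further: 0% = median of negative and 100% = median of positive control wells; the first replicate is given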
Yeast UUG start – modulators of start codon recognition fidelity in yeast; S. cerevisiae UUG-firefly luciferase reporter, luminescence/redox ratio; activity score, % at 18.7 µM; 350,000 compounds, 0.13% hits; AID 602363;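 active means replicate mean at a twofold rise or more, about +100% in these data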;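 further: firefly luciferase made from a UUG start codon reports start codon fidelity; reporter light over untreated wells divided by growth signal over untreated wells; some hits fall short of that in this replicate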
eIF4H FP inh – inhibitors of RNA binding by human eIF4H; 290,000 compounds, 0.94% hits; eIF4H fluorescence polarization binding assay; Q15056; inhibition, % at 35 µM; AID 2012;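 active means 50% or more with normal probe brightness, or confirmed in later tests; inconclusive means above 50% with abnormal brightness, or retests that disagree; inactive means below 50% or failed in later tests; about a fifth of its hits are not listed in these tables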;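 further: calls also rest on retests at 20 µM and on dose response follow-up; 0% = protein and probe with vehicle and 100% = probe without protein; strong numbers were not always called active; many hits fall short of the cut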
MT1-MMP act inh – inhibitors of human MT1-MMP activation; P50281; HT1080 RFP-PRO-GFP cells, GFP/RFP ratio fluorescence, overnight; percent of plate control window, DMSO zero; GFP/RFP ratio change, % at 20 µM; 360,000 compounds, 0.061% hits;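 active means GFP/RFP ratio change of at least 30% with cell ATP level not reduced by more than half and red fluorescence within 50% of control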; further: strong numbers were not always called active
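Read-out: GFP/RFP fluorescence ratio; Test system: RFP-PRO-GFP reporter HT1080 cells; Compound dosing: single-point 20 µM compound, 1% DMSO; Times: overnight compound exposure at 37 °C.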
HIV Env fusion – blocks HIV Env-driven cell-cell fusion. inhibition, % at 12.3 µM. HeLa-JRFL Env/CEM21 cell fusion, luciferase. 360,000 compounds, 1.1% hits;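 active means mean replicate inhibition score of at least 50 and every replicate individually at or above 50; inconclusive means only one of the two criteria met; inactive means mean below 50 and not all replicates reaching 50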;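 further: 0% = plate neutral controls and 100% = maraviroc near 300 nM; one replicate is shown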
Rce1 inhib – inhibitors of yeast Ras-converting enzyme. Q03530. yeast membranes, quenched prenylated peptide cleavage fluorescence. calls only. 290,000 compounds, 0.27% hits. AID 2563;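 active means fall in fluorescence gain of 50% or more versus controls, with final raw signal at or below 3038400; inconclusive means same 50% fall but final raw signal above 3038400; inactive means fall in fluorescence gain under 50%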;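 further: plate controls were neutral control wells for no effect and wells lacking membranes for full effect; tested at 10 µM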
Target sequence (Q03530 whole entry, looked up): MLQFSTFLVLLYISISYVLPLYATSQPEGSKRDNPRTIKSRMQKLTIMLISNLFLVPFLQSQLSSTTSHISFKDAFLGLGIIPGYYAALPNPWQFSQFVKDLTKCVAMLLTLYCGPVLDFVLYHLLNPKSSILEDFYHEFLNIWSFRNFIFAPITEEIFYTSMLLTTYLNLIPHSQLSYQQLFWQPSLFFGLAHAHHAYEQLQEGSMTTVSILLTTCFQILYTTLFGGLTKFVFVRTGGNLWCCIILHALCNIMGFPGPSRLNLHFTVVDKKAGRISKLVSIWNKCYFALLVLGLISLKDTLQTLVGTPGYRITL
PABP polyA inh – blocks human PABP binding to poly(A) RNA; fluorescence polarization; inhibition, % at 35 µM; 290,000 compounds, 1% hits; AID 2014;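 active means 50% or more with normal probe brightness, or confirmed in later tests; inconclusive means above 50% with abnormal brightness, or retests that disagree; inactive means below 50% or failed in later tests; about a fifth of its hits are not listed in these tables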;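 further: calls also rest on retests at 20 µM and on dose response follow-up; controls were probe without protein and protein plus probe with vehicle; some compounds called inactive have numbers as strong as hits; many hits fall short of the cut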
Target sequence (P11940 whole entry, looked up): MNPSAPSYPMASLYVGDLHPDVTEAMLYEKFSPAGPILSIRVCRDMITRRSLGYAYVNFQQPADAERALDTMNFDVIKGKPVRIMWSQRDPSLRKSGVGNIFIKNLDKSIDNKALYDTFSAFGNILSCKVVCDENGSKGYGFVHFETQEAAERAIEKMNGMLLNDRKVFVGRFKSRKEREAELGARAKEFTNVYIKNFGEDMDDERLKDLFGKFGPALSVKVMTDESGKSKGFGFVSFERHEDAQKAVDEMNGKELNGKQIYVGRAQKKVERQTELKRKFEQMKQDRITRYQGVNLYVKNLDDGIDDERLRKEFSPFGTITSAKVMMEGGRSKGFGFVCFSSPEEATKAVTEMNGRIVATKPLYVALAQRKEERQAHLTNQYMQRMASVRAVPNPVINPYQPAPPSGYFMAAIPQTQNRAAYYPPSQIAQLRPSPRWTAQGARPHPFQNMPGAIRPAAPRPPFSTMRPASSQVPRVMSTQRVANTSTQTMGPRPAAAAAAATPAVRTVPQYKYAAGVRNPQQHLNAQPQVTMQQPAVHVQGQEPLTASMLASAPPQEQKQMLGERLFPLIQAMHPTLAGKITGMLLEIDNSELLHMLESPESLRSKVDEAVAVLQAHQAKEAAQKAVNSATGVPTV
MT1-MMP act inh RFP – second read-out of MT1-MMP act inh, no call of its own (marks repeat the call); RFP signal change, %; measured here: RFP expression control read;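 0 = vehicle wells; hits needed this value within 50% of zero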
Numbers without * were called inactive; i = inactive; ? = inconclusive; . = not tested or not shown; + = active, no number. This is a subset; the hit share may differ from the screen's.

Sample of the layout:
SMILES	CSC inhib	Yeast UUG start	eIF4H FP inh	MT1-MMP act inh	MT1-MMP act inh RFP	HIV Env fusion	Rce1 inhib	PABP polyA inh
O=C1CCN(Cc2ccccc2)S(=O)(=O)c2ccc(F)cc21	0	-16	.	4	0	14	.	.
CSc1cccc(NC(=O)CCCOc2ccccc2)c1	0	0	6	7	6	19	i	2
COc1cccc(CN(C)CC(=O)N2CCN(S(=O)(=O)c3ccccc3)CC2)c1	.	-7	.	2	4	18	.	.
O=C(CCl)N(c1ccccc1)C1CCS(=O)(=O)C1 (stereo not given)	52	-15	-13	-10	-3	43	i	-7
COc1ccc(NC(=O)c2ccc(NC(=O)C3CC3)cc2)cc1	-16	-9	-7	1	3	12	i	-4
C=CCOc1ccc(C2C(C#N)=C(N)N(Nc3ccccc3)C3=C2C(=O)CCC3)cc1OC (stereo not given)	14	-21	5	-2	-8	.	i	-3
CC[C@@H](C)[C@H](NC(=O)C1CCN(C(=O)[C@@H](NS(=O)(=O)c2ccc(C)cc2)C(C)C)CC1)C(=O)O	-10	-7	-7	-2	3	.	i	4
CNc1cc(C)c(C#N)c2nc3ccccc3n12	-1	-22	4	3	-1	7	i	-3
CC(C)(O)C1CC[C@@](C)([C@@H]2CC[C@]3(C)[C@H]2[C@H](O)CC2[C@@]4(C)CCC(O)C(C)(C)C4C(OC4OC(CO)C(O)C(O)C4O[C@@H]4OCC(O)C(O)C4O)C[C@]23C)O1 (stereo not given in full)	-17	14	.	5	8	7	.	.
CC(C)n1c(/C=C/c2ccccc2)nc2ccccc21	10	-14	-5	-2	-6	-130	?	-3
Cc1ccc(NC2=CC(=O)CC(C)(C)C2)cc1F	4	-14	0	-2	-2	0	i	-9
Cc1ccccc1CC1(CO)CCCN(C(=O)CCCN2CCCCC2=O)C1 (stereo not given)	5	-8	6	-1	3	-18	i	-2

The listing, previewed entries included:
SMILES	CSC inhib	Yeast UUG start	eIF4H FP inh	MT1-MMP act inh	MT1-MMP act inh RFP	HIV Env fusion	Rce1 inhib	PABP polyA inh
O=C1CCN(Cc2ccccc2)S(=O)(=O)c2ccc(F)cc21	0	-16	.	4	0	14	.	.
CSc1cccc(NC(=O)CCCOc2ccccc2)c1	0	0	6	7	6	19	i	2
COc1cccc(CN(C)CC(=O)N2CCN(S(=O)(=O)c3ccccc3)CC2)c1	.	-7	.	2	4	18	.	.
O=C(CCl)N(c1ccccc1)C1CCS(=O)(=O)C1 (stereo not given)	52	-15	-13	-10	-3	43	i	-7
COc1ccc(NC(=O)c2ccc(NC(=O)C3CC3)cc2)cc1	-16	-9	-7	1	3	12	i	-4
C=CCOc1ccc(C2C(C#N)=C(N)N(Nc3ccccc3)C3=C2C(=O)CCC3)cc1OC (stereo not given)	14	-21	5	-2	-8	.	i	-3
CC[C@@H](C)[C@H](NC(=O)C1CCN(C(=O)[C@@H](NS(=O)(=O)c2ccc(C)cc2)C(C)C)CC1)C(=O)O	-10	-7	-7	-2	3	.	i	4
CNc1cc(C)c(C#N)c2nc3ccccc3n12	-1	-22	4	3	-1	7	i	-3
CC(C)(O)C1CC[C@@](C)([C@@H]2CC[C@]3(C)[C@H]2[C@H](O)CC2[C@@]4(C)CCC(O)C(C)(C)C4C(OC4OC(CO)C(O)C(O)C4O[C@@H]4OCC(O)C(O)C4O)C[C@]23C)O1 (stereo not given in full)	-17	14	.	5	8	7	.	.
CC(C)n1c(/C=C/c2ccccc2)nc2ccccc21	10	-14	-5	-2	-6	-130	?	-3
Cc1ccc(NC2=CC(=O)CC(C)(C)C2)cc1F	4	-14	0	-2	-2	0	i	-9
Cc1ccccc1CC1(CO)CCCN(C(=O)CCCN2CCCCC2=O)C1 (stereo not given)	5	-8	6	-1	3	-18	i	-2
CCC1=C(OC(=O)N(CC)CC)N2C(=O)OC(=NCc3ccccc3)[C@]2(C)[C@H]2C1=CC[C@H]1C(=O)N(c3ccccc3)C(=O)[C@H]12	-7	-7	-8	3	-4	-40	i	7
Cc1ccccc1-n1nc(C)c2cc(C(=O)NCc3cccnc3)sc21	3	0	3	0	-9	?	i	10
COc1cc(/C=C(\C#N)C(=O)NC2CCCCC2)ccc1OCc1ccc(C(=O)O)cc1	-4	-13	7	-4	-3	22	i	9
O=c1[nH]c(CSc2nc3ccccc3o2)nc2c1cnn2-c1ccccc1	-8	4	-9	1	-2	.	i	8
COc1ccc(NC(=O)CN(C)Cc2c(F)cccc2Cl)cc1S(=O)(=O)N1CCCCC1	26	.	-4	5	-1	-8	i	17
O=C(Cn1c(=O)n(-c2ccccc2)c(=O)c2sccc21)N1CCCC1	-9	-15	-10	-3	0	29	i	-1
COc1ccc([N+](=O)[O-])cc1NC(=O)C(C)OC(=O)/C=C/c1ccco1 (stereo not given)	19	-18	9	4	0	33	i	-6
Cn1c(=O)oc2cc(S(=O)(=O)NCCC(=O)N3CCN(c4ccccc4F)CC3)ccc21	5	-9	19	1	-1	-7	i	11
C=CCc1cc(OC)ccc1OCCOCCN1CCc2ccccc2C1	-11	.	13	-1	1	17	i	-4
CCN(C(=O)c1ccco1)c1nnc(-c2cccnc2)s1	-15	-18	-8	1	0	-21	i	7
CCC1(C)CC(CCNS(=O)(=O)c2ccc(C)cc2)(c2ccc(C)cc2)CCO1 (stereo not given)	-1	-9	1	-8	-10	.	i	5
Cn1c(=O)c2cc(S(=O)(=O)NCCC(=O)NC3CCCCCCC3)ccc2n(C)c1=O	-5	-1	-3	0	6	.	i	10
O=C(COC(=O)c1cc(S(=O)(=O)N2CCCCC2)ccc1Cl)NC1CCS(=O)(=O)C1 (stereo not given)	-3	-10	.	-2	1	4	.	.
CCC1(c2ccccc2)CN(C)C1=O (stereo not given)	.	-4	.	-1	0	-12	.	.
COc1ccc(Br)c(OC)c1C(=O)NC(=O)Nc1nc(C)cc(C)n1	-27	.	-4	3	-2	9	i	-10
CSCCC(NC(=O)c1ccccc1Br)C(=O)N1CCN(C(C)=O)CC1 (stereo not given)	0	-5	.	-1	0	-4	.	.
COc1ccccc1NS(=O)(=O)c1cc(NC(=O)c2ccc(=O)[nH]c2)ccc1N1CCOCC1	-4	.	-2	4	5	-17	i	0
CCOC(=O)C(c1ccccc1)C(Nc1ccc(F)cc1)c1ccccn1 (stereo not given)	14	.	-10	-8	1	17	i	8

Single entries from the list:
COc1ccc(NC(=O)c2ccc(NC(=O)C3CC3)cc2)cc1 – CSC inhib: -16
Cc1ccccc1CC1(CO)CCCN(C(=O)CCCN2CCCCC2=O)C1 (stereo not given) – MT1-MMP act inh: -1

Further compounds
SMILES	CSC inhib	Yeast UUG start	eIF4H FP inh	MT1-MMP act inh	MT1-MMP act inh RFP	HIV Env fusion	Rce1 inhib	PABP polyA inh
Cc1ccc(N(Cc2ccc(C(=O)NC3CCCCC3)cc2)S(C)(=O)=O)cc1C	-6	-16	2	.	.	10	i	14
Cc1ccc(S(=O)(=O)NC(=S)NC2CCCCC2)cc1	-10	.	0	-1	0	-3	i	-2
CCN(CC)S(=O)(=O)c1ccc(OC)c(NS(=O)(=O)c2ccc(F)cc2)c1	13	-4	-1	5	-3	.	i	-14
CN1C(=O)c2ccc(N3CCCC3)cc2C1=O	.	0	72*	-64	-1	.	i	78*
COc1ccc(C2=C/C(=C\c3ccc(OC(C)=O)cc3)C(=O)O2)cc1	6	-15	4	3	3	18	i	-9
CC(=O)c1nn(-c2cccc(Br)c2)cc1C(=O)c1ccc(Cl)cc1	1	-14	-3	-1	-4	-14	i	7
COc1cc(/C=C2\C(=N)N3N=C(C(C)C)SC3=NC2=O)ccc1OCCOc1ccc(NC(C)=O)cc1	1	-9	-6	0	3	-43	i	2
C=CCn1c(=O)c(C(=O)NCc2ccccc2Cl)c(O)c2ccccc21	41	-31	-6	3	-2	-17	i	-18
FC(F)(F)c1ccccc1Cc1c(-c2ccc(Cl)cc2)nc2ccc(Br)cn12	.	-8	.	-3	-6	-76	.	.
O=C1C(Cc2ccccc2)S/C(=N/N=C/c2ccco2)N1c1ccccc1 (stereo not given)	2	-10	16	-5	1	.	i	4
COC(=O)CNc1c(-c2ccccc2)nc2ccc(Br)cn12	1	-38	11	6	1	-92	.	-2
CC1CCc2c(sc(NC(=O)c3c([N+](=O)[O-])cnn3C)c2C(N)=O)C1 (stereo not given)	10	-18	1	0	-3	-1	i	10
O=C(Nc1nc2nccc(-c3ccccc3)n2n1)c1ccccc1	6	-9	-3	2	-1	-38	i	-7
c1ccc(-c2csc(Nc3cccnc3)n2)nc1	15	-21	-3	0	-1	-47	i	-6
CC1CCN(C(=O)c2[nH]cnc2C(=O)Nc2ccc(Cl)cc2)CC1	-30	1	.	6	-5	-9	.	.
COc1cccc(N=C2SC(CC(=O)Nc3ccccc3)C(=O)N2Cc2ccccn2)c1 (stereo not given)	-15	.	3	1	-1	1	i	-2
CC1CN(C2=NC(=O)/C(=C3/C(=O)N(Cc4ccc(F)cc4)c4ccccc43)S2)CC(C)O1 (stereo not given)	-2	.	3	0	-2	4	i	-3
CN(CC(=O)NCCc1ccccc1)S(=O)(=O)c1cccc2nsnc12	-15	.	1	0	6	20	i	-2
CN1N=C(C(=O)Nc2ccc3c(c2)CCC3)CCC1=O	3	-7	-11	6	3	-46	i	-4
CCCn1ncc2c(Nc3ccc(C)c(C)c3)ncnc21	-11	-17	-2	3	1	-38	.	0
COC(=O)N1CCN(S(=O)(=O)c2ccc(F)cc2)CC1	7	-15	4	3	6	-1	i	3
CCOC(=O)c1c(C(=O)OCC)c(C)n(CCc2ccccc2)c1C	-10	-2	-10	-6	-3	-20	i	7
O=C(O)c1cccnc1SCC(=O)N1CCCc2ccccc21	-13	-12	12	4	16	6	i	21
CC(C)CNC(=O)C1Nc2ccc(C(F)(F)F)cc2C2C=CCC12 (stereo not given)	5	10	.	7	-2	-3	i	.
Cc1ccc(OCCCN2CCCC2)c(C)c1	1	0	-6	1	5	.	i	35
CC(C)(C)c1ccc(S(=O)(=O)N2CCN(Cc3cc4c(cc3O)OCO4)CC2)cc1	.	-11	.	-3	1	-7	.	.
O=C1[C@H]2[C@@H](c3ccc(F)cc3)N3C(=O)N(c4cccc(F)c4)C(=O)[C@@]3(Cc3ccc(Cl)cc3)[C@H]2C(=O)N1C1CCCCC1	5	-14	.	-5	-11	6	i	.
COc1cc2c(cc1OC)CN(C(=O)COc1ccccc1[N+](=O)[O-])CC2	8	-2	-12	-3	-3	4	i	13
Cc1ccc(S(=O)(=O)N2CCN(C(=O)COC(=O)c3oc4ccccc4c3C)CC2)cc1	1	-17	.	3	0	9	i	.
CCN1CCCC1CN(Cc1cc2ccc(C)cc2[nH]c1=O)C(=S)Nc1ccccc1C(=O)OC (stereo not given)	8	.	-7	-8	-2	-18	i	-6
COCCn1c(SCc2nc3scc(-c4ccc(Cl)cc4)c3c(=O)[nH]2)nnc1-c1cccc(C)c1	52	.	22	-3	-14	27	i	-1
COc1cccc(C(=O)Nc2ccccc2)c1	1	.	-2	-7	0	-122	i	3
CCNc1nc(NCC)nc(NS(=O)(=O)c2ccc(N)cc2)n1	-3	-17	-8	2	-1	9	i	-3
C=CCn1cnc2c(sc3nc(C)cc(C)c32)c1=O	-4	.	-4	0	1	-3	i	1
Cc1cccc(CS(=O)(=O)c2nnc([C@H](Cc3ccccc3)NC(=O)OC(C)(C)C)o2)c1	95*	-4	-10	2	-12	.	i	4
O=C(O)CCc1nc2cc(C(F)(F)F)ccc2n(Cc2ccccc2)c1=O	-17	-10	-10	-4	-1	5	+	-1
Cc1nc(N2CCN(S(=O)(=O)c3ccc(F)cc3)CC2)c2c(-c3cccs3)csc2n1	8	-19	-22	-10	-8	-38	i	6
